Bioassay records: PubChem BioAssay, The Scripps Research Institute Molecular Screening Center
OX1R antag-1 = antagonists of human orexin 1 receptor (OX1R); O43613; OX1R-expressing cells, FRET antagonist read-out; inhibition, % at 6.6 µM; 330,000 tested, 1.8% active; AID 485270; in the data active = inhibition mostly above about 38%, no sharp cut-off; inactive = mostly below about 40%;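 note: 0% = agonist challenge alone and 100% = reference antagonist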
Target sequence (O43613 whole entry, looked up): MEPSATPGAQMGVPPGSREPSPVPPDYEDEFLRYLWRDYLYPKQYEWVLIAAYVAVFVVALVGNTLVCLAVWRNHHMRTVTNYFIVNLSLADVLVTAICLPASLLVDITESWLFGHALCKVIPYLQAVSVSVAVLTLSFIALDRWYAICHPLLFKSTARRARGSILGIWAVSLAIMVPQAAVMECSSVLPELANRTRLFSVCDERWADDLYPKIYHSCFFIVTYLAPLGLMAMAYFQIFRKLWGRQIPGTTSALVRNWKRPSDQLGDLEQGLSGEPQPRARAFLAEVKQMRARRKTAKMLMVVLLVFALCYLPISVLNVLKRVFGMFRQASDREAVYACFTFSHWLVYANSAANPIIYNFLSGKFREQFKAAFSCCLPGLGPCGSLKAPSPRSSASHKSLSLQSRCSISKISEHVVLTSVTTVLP
OX1R antag-2 = blocks the human orexin 1 receptor | O43613 | CHO/OX1R cells, Fluo-8 calcium fluorescence, orexin A | inhibition, % at 5 µM | 330,000 tested, 0.43% active | AID 434989;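 active = inhibition above its plate's threshold, mean inhibition of all tested compounds on the plate plus 3 SD, cut at about 37% in these data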;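 note: 0% = orexin A challenge wells and 100% = SB-334867-A antagonist wells; not every result past the cut was called active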
The depositor's hits bear a star. An excerpt, and most or all hits are left out here.

SMILES | OX1R antag-1 | OX1R antag-2
CCOC(=O)C(C)(C)Sc1ncnc2nc[nH]c12 | 2.3 | -17.6
CC(=O)N1CSCC1C(=O)NNS(=O)(=O)c1ccccc1 (stereo not drawn) | 4.7 | -9.2
O=C(COC(=O)c1ccc(NS(=O)(=O)c2cccs2)cc1O)Nc1nc2ccccc2s1 | 17.7 | 10.3
CSc1nnc(-c2cccc(C)c2)n1N | 13.2 | -5.9
O=C(CSc1nc2ncccc2[nH]1)Nc1ccc2c(c1)OCCO2 | 23.4 | -2.8
COc1cccc(Oc2nccc(N(C)C)c2C#N)c1 | 9.3 | -37.1
COC(=O)C1(CC2CC(c3ccc(Cl)cc3)=NO2)CCN(C(=O)OC(C)(C)C)CC1 (stereo not drawn) | 8.3 | 5.2
COc1cc(NC(=S)NC(=O)CC(C)C)ccc1NC(=O)c1cc2ccccc2o1 | 19.8 | -22.9
COC(=O)[C@@H]1C[C@@]2(O)[C@@H](O)[C@@H](O)[C@@H](O)C[C@H]2N1CC(c1ccccc1)c1ccccc1 | 10.6 | -12.8
O=C(NCCCCNC(=O)c1ccc(Br)s1)c1ccc(Br)s1 | 7.2 | -12.8
Cc1cc(NC(=O)CSc2nccn2-c2ccc(F)cc2)no1 | 9.7 | -6.2
COc1ccc(-c2c(C(C)=O)c(C)nc3sc4c(=O)[nH]nnc4c23)cc1 | 11.7 | -19.2
Cc1ccccc1Nc1nc(N)nc(CSc2nnc3ccccn23)n1 | 23.1 | -5.1
Cn1c(SCCN2CCCCC2)nnc1-c1ccccc1Br | 10.8 | -12.0
Nc1cc(N)cc(-c2nc3ccccc3[nH]2)c1 | 14.3 | 11.6
COc1cc(NS(=O)(=O)c2ccc3c(c2)oc(=O)n3C)cc(OC)c1OC | 11.9 | -15.2
CC1CCCCC1n1c(-c2cccnc2)n[nH]c1=S (stereo not drawn) | 5.1 | -4.6
CCCCn1c(N)c(N(CCOC)C(=O)COC(=O)CSc2cc(C)c3ccccc3n2)c(=O)[nH]c1=O | 6.7 | -9.9
CCO/C=C/C(O)(CNC(=O)COc1ccccc1F)C(F)(F)F (stereo not drawn) | 11.3 | -11.8
O=C(Nc1ccccc1O)c1cccc(NC(=O)c2ccco2)c1 | 12.7 | 4.8
CCCC(CCC(=O)Nc1ccc(C(=O)OC)cc1)C(=O)O (stereo not drawn) | 17.2 | -8.1
COc1ccc(C[C@H]2CN3C(=NC[C@H]3Cc3ccccc3)N2CCNC(=O)CCC2CCCCC2)cc1 | 19.0 | -32.7
O=C(NC1CCN(S(=O)(=O)c2ccccc2)CC1)c1ccccc1 | 0.8 | -7.5
COCCn1c(SCc2cc(C(C)=O)ccc2OC)nc2cc(Cl)ccc2c1=O | 23.8 | -5.0
O=C(NC(=S)Nc1ccccn1)c1ccccc1 | 0.8 | -58.0
CC1CCCCC1NC(=O)CN1CCC(NC(=O)c2cccc(F)c2)CC1 (stereo not drawn) | 18.1 | -22.7
CCCCN(CCCNC(=O)c1ccc(CS(=O)(=O)c2c(Cl)cccc2Cl)o1)Cc1ccccc1 | 6.2 | -27.6
CCc1ccc(CCC(=O)Nc2sc3c(c2C#N)CCCC3)o1 | 2.3 | -20.2
Cc1cccc(C(=O)c2ccccc2C(=O)O)c1 | 8.5 | -9.2
CCCCSC1=C(C#N)C(c2ccccc2C)CC(=O)N1 (stereo not drawn) | 18.1 | -10.6
Cc1cc(O)ccc1NC(=S)NC(=O)c1cncc(Br)c1 | 12.8 | -10.8
CCc1nn(C(C)C(=O)NCCN2CCCCCC2)c(=O)c2cc3occc3n12 (stereo not drawn) | 12.5 | -13.9
COc1cc(NC2CCCCC2O)c2nc(-c3ccc(Cl)cc3)ccc2c1 (stereo not drawn) | 16.8 | -26.5
COCCNC(=S)N(CCc1c(C)[nH]c2ccc(F)cc12)Cc1cccnc1 | 18.5 | -15.3
O=C(COC(=O)c1ccco1)Nc1nc2c(F)c(F)c(F)cc2s1 | 12.2 | -15.2
O=C1c2ccccc2C(=O)N1CN(C(=O)c1ccccc1[N+](=O)[O-])c1ccc(F)cc1 | 33.2 | -9.8
Cc1csc(NC(=O)c2cccc(Cn3nc(C)c(Br)c3C)c2)n1 | 43.3 | -28.9
Cc1coc(C)c1C(=O)CC1(O)C(=O)N(C)c2ccc(Cl)cc21 (stereo not drawn) | 11.5 | -21.9
CC(=O)N1c2ccc(S(=O)(=O)NCC3CCC(C(=O)NCc4ccc(C)cc4)CC3)cc2CC1C (stereo not drawn) | 10.3 | -25.0
CCOCCOC(=O)C1=C(C)N(C)C(=O)NC1c1cc(Cl)c(O)c(OCC)c1 (stereo not drawn) | 3.8 | -15.3
COc1cc(NC(=S)NCCN2CCOCC2)cc(OC)c1 | 12.4 | -13.4
COC(=O)c1ccc(C2=NOC(C)(c3sc(-c4ccc(Cl)cc4)nc3C)C2)cc1 (stereo not drawn) | 36.0 | -16.6
CCN(CC)CCn1c(/N=C/c2ccc(OC)c(OC)c2)nc2ccccc21 | 5.8 | -3.9
Cc1cccc(-c2nc3c(c(SCC(N)=O)n2)CCCC3)c1 | 17.6 | -19.0
CCCCCn1c(-c2ccco2)nc2nc3ccccc3nc21 | 28.0 | -24.8
Cc1ccc(C(=O)CSc2nnc(-c3cccnc3)n2N)cc1 | 6.8 | 9.2
O=C(CSc1nc2ccccc2c(=O)n1-c1ccc(F)cc1)Nc1ccc(Cl)c(S(=O)(=O)N2CCOCC2)c1 | 13.7 | -5.3
O=C1CCCc2ccccc2N1 | 5.8 | 4.1

One compound at a time, from the list above. Order of screens: OX1R antag-1 | OX1R antag-2
CC(=O)N1c2ccc(S(=O)(=O)NCC3CCC(C(=O)NCc4ccc(C)cc4)CC3)cc2CC1C (stereo not drawn) reads 10.3 | -25.0
O=C(CSc1nc2ccccc2c(=O)n1-c1ccc(F)cc1)Nc1ccc(Cl)c(S(=O)(=O)N2CCOCC2)c1 reads 13.7 | -5.3
COc1cc(NC(=S)NCCN2CCOCC2)cc(OC)c1 reads 12.4 | -13.4
CCCCCn1c(-c2ccco2)nc2nc3ccccc3nc21 reads 28.0 | -24.8
Cc1csc(NC(=O)c2cccc(Cn3nc(C)c(Br)c3C)c2)n1 reads 43.3 | -28.9

Following part:
SMILES | OX1R antag-1 | OX1R antag-2
CCCC1(C(=O)OC)NC(c2ccc(OC)c(OC)c2)C2C(=O)N(c3ccc4c(c3)OCO4)C(=O)C21 (stereo not drawn) | 4.1 | -15.4
CN(C)CCn1c(=O)n(-c2ccc(F)cc2)c(=O)c2c3c(sc21)CCCCC3 | 11.1 | -31.8
Cc1ccc(Sc2cc(C(=O)c3ccccc3C(=O)O)ccc2[N+](=O)[O-])cc1 | 7.6 | -10.5
COc1cc(C=C2C(=O)OC(c3ccccc3)OC2=O)cc(Br)c1O (stereo not drawn) | 6.3 | -15.1
CSc1ccccc1C(=O)N1CCN(c2cccc(Cl)c2)CC1 | 33.4 | -10.4
CSc1ccc(/C=N/NC(=O)c2cccs2)cc1 | 63.0 | -19.0
CCCCn1c(N)c(N(CCOC)C(=O)C2CCN(C(=O)c3ccc(Cl)cc3)CC2)c(=O)[nH]c1=O | 23.5 | -2.1
COc1ncnc(OC)c1NC(=O)c1ccc(F)cc1 | 30.5 | -4.3
CN(c1ccccc1)S(=O)(=O)c1nnc(NC(=O)c2ccco2)s1 | 23.5 | -37.5
CCCCOC(=O)c1ccc(NC(=O)C(=O)NCc2cccnc2)cc1 | 9.5 | 18.8
CCC(NC(=O)Nc1cc(OC)c(OC)c(OC)c1)(C(F)(F)F)C(F)(F)F | 10.8 | -10.4
CCC(c1nnnn1Cc1cccs1)N1CCN(C(=O)c2ccco2)CC1 (stereo not drawn) | 10.4 | -24.6
CCOC(=O)Cn1cc([N+](=O)[O-])c(OC)n1 | 18.2 | 1.2
Cn1c(=O)c2ncn(CC(=O)NCCOCc3ccccc3Cl)c2n(C)c1=O | 7.4 | -27.6
CCO[C@@H]1OC(C(=O)Nc2ccccc2)=C[C@H](c2ccccc2)[C@H]1CCCO | 7.7 | -23.6
COc1ccc(NC(=O)Nc2cccc3c2O[C@H](CN(C)S(=O)(=O)c2ccccc2)[C@@H](C)CN([C@H](C)CO)C3=O)cc1 | 7.7 | -20.0
O=C(c1cc2ccccc2oc1=O)N1CCN(c2ccccn2)CC1 | 19.3 | -16.3
COC(=O)c1sc2ccccc2c1-n1cccc1C(=O)C(=O)Nc1ccccc1 | 10.6 | -4.2
Cc1ccccc1OCC(=O)NNC(=S)NC(=O)c1ccccc1[N+](=O)[O-] | 5.6 | -6.5
O=C(NN=C1CCN(Cc2ccccc2)CC1)c1cc2ccccc2cc1O | 11.8 | 11.3
Cc1cc(C)nc(N/N=C/c2ccco2)n1 | 16.2 | 6.9
CC(=O)N(Cc1cc(=O)[nH]c2ccccc12)c1ccccc1C | -4.5 | 5.6
COc1cc(NC(=O)CSc2nc(C)cs2)cc(OC)c1 | 24.6 | -24.6
O=c1c2ccccc2nc(-c2ccc(Cl)cc2Cl)n1CCCn1ccnc1 | 12.1 | -23.0
Cc1c(C(=O)NCC2CCCO2)sc2nc(-c3ccc(F)cc3)cn12 (stereo not drawn) | 12.3 | -20.3
NC(=O)NC(=O)CC1S/C(=N/N=C2\CSC(=O)N2)NC1=O (stereo not drawn) | 2.0 | 2.5
CC(c1ccon1)N(C)Cc1c(C(=O)N(C)Cc2ccccc2)nc2ccccn12 (stereo not drawn) | 10.8 | -40.3
Cc1noc(NS(=O)(=O)c2ccc(NC(=O)CSc3nc4c(cc3C#N)CCCCC4)cc2)c1C | 11.0 | -6.5
CC(=O)/C(=N\Nc1ccccc1Cl)Sc1nnc(-c2ccccc2)n1-c1ccccc1 | 19.3 | -22.6
CC(OC(=O)Cc1n[nH]c(=O)c2ccccc12)C(=O)Nc1cccc([N+](=O)[O-])c1 (stereo not drawn) | 22.4 | -21.2
CCCc1cc(NCCCN(C)C)n2c(nc3ccccc32)c1C#N | 3.3 | -24.7
COc1ccccc1CNC(=O)COC(=O)Cc1c(Cl)cccc1Cl | 19.8 | -25.1
CCc1ccccc1NC(=O)N1C2CCCC1CC(NC(=O)C(C)(C)C)C2 (stereo not drawn) | 7.7 | -11.1
CCn1cc(/C=N/NS(=O)(=O)c2ccc(OC)cc2)c(C)n1 | 23.8 | -17.1
O=C(NC1CCCC1)c1ccc(CS(=O)(=O)c2ccc(Br)cc2)o1 | 17.0 | -22.9
Cc1cc(NC(=O)c2ccc(Cl)c(S(=O)(=O)N3CCOCC3)c2)no1 | 6.2 | -17.2

The final 6 entries of the section before open the next one:
SMILES | OX1R antag-1 | OX1R antag-2
CCCc1cc(NCCCN(C)C)n2c(nc3ccccc32)c1C#N | 3.3 | -24.7
COc1ccccc1CNC(=O)COC(=O)Cc1c(Cl)cccc1Cl | 19.8 | -25.1
CCc1ccccc1NC(=O)N1C2CCCC1CC(NC(=O)C(C)(C)C)C2 (stereo not drawn) | 7.7 | -11.1
CCn1cc(/C=N/NS(=O)(=O)c2ccc(OC)cc2)c(C)n1 | 23.8 | -17.1
O=C(NC1CCCC1)c1ccc(CS(=O)(=O)c2ccc(Br)cc2)o1 | 17.0 | -22.9
Cc1cc(NC(=O)c2ccc(Cl)c(S(=O)(=O)N3CCOCC3)c2)no1 | 6.2 | -17.2
Cc1ccc(-c2nn(-c3cc(Cl)ccc3[N+](=O)[O-])c(=O)c3ccccc23)cc1C | 32.2 | -30.5
CC(NC(=O)c1ccccc1)c1ccc(F)cc1 (stereo not drawn) | 6.7 | -11.1
CCOC(=O)c1cc(-c2ccccc2C)n(Cc2cc(C)no2)n1 | -1.3 | -22.0
O=C(c1ccco1)N1N=C(c2cccs2)CC1c1cc([N+](=O)[O-])ccc1O (stereo not drawn) | 23.5 | -18.5
Cc1cc(NC(=O)c2cc(C3CC3)on2)no1 | -0.1 | 0.0
CC1Cc2ccccc2N1C(=O)COC(=O)C1(c2ccccc2F)CCCC1 (stereo not drawn) | 29.6 | -2.2
CN1CCc2c(OCC(=O)N3N=C(c4cccs4)CC3c3ccc(F)cc3)cccc2C1=O (stereo not drawn) | 20.1 | -28.3
O=C(Cn1c(NCCO)nc2ccccc21)NCCc1ccccc1 | 19.3 | -5.1
Cc1c(Cl)cccc1NC(=O)CSc1sc2c(O)cc(=O)[nH]c2c1C#N | 15.2 | 6.6
Cc1nc2ccccc2c2nc(N)nn12 | -1.8 | -24.2
CCOc1cc(N2CCOCC2)c(OCC)cc1NC(=O)C1CCCC1 | 4.2 | -17.1
CCN(CCn1cccn1)C(=O)CC1C(=O)NCCN1Cc1cc(OC)cc(OC)c1 (stereo not drawn) | 2.0 | -6.7
COc1ccc(NC(C)=O)cc1S(=O)(=O)N1CCc2ccccc21 | 4.7 | -5.2
CCOC(=O)N1CCN(C(=O)CS(=O)(=O)c2cn(Cc3ccccc3Cl)c3ccccc23)CC1 | 8.2 | -21.4
CC(=O)N1CCC(N(CCN2CCOCC2)C(=S)Nc2c(C)cccc2C)CC1 | -5.6 | -19.0
COc1ccc(C)cc1N(CC(=O)NCCSCc1cccc(Cl)c1)S(C)(=O)=O | 10.9 | -14.1
O=C(CN1CCCCCCC1)N/N=C/c1ccc([N+](=O)[O-])o1 | 38.6 | -8.2
O=C(O)CCn1ncc2ccccc2c1=O | 9.7 | -10.8
Nc1ccc2nc(SCC(=O)c3ccccc3)sc2c1 | 3.9 | -16.8
Cc1cc(C)cc(Nc2ncc3c(n2)CC(c2ccco2)CC3=O)c1 (stereo not drawn) | 14.9 | -31.2
O=C(Cc1cccs1)N(CC1CCCO1)C1(C(=O)NC2CCCCC2)CCCCC1 (stereo not drawn) | 24.1 | -18.5
NC(=O)CNC(=O)c1cccc(Cl)c1 | 3.5 | -22.6
COc1ccc(C2=C3C(=O)OCC3Cc3ncn(Cc4ccccc4)c32)cc1 (stereo not drawn) | 7.1 | -45.6
